# NS1 inh: inhibitors of influenza NS1 protein function; 0.4% of 270,000 active; S. cerevisiae slowed by influenza A NS1, growth recovery by OD600; Potency, µM (doses to about 46.1 µM), inactives show at the top dose activity, positive = more growth; active means well fitted rising curve with a large enough effect; inconclusive means small, poorly fitted or top-dose-only effect; inactive means no such curve, though single readings can be large or run the other way; further: nearly all actives have a fitted effect of over 50% in size
#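 In this qHTS, NS1 from influenza A is expressed in budding yeast, where it slows growth. Cells are switched from glucose to 2% galactose medium (pH 6.0, -URA), treated with compound, and growth recovery is read at OD600.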
# SARS PLpro yeast: blocks SARS-CoV papain-like protease in a yeast assay; Potency, µM (top dose mostly 32.9 µM), for inactives: at the highest dose activity, positive = growth rescue; S. cerevisiae expressing SARS-CoV PLpro, growth rescue; control for the full effect not named in the record; 0.19% of 330,000 active; active means well fitted rising curve with a large enough effect; inconclusive means small, poorly fitted or top-dose-only effect; inactive means no such curve, though single readings can be large or run the other way; further: 0% is about no effect; nearly all actives have a fitted effect of over 55% in size; growth read by luminescence after 48 h
# Cruzain inh noDet: blocks cruzain activity in detergent-free assay; 2.3% of 200,000 active; Potency, µM, for inactives: max response, negative = inhibition, actives largely listed as inhibitors; purified cruzain, Z-FR-AMC fluorescence, no detergent; P25779;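 further: plate controls were enzyme without inhibitor for no effect and buffer without enzyme for full effect; nearly all actives have a fitted effect of over 40% in size; top concentration of the series not given in the record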
# Target sequence (P25779 123-467 limits assumed): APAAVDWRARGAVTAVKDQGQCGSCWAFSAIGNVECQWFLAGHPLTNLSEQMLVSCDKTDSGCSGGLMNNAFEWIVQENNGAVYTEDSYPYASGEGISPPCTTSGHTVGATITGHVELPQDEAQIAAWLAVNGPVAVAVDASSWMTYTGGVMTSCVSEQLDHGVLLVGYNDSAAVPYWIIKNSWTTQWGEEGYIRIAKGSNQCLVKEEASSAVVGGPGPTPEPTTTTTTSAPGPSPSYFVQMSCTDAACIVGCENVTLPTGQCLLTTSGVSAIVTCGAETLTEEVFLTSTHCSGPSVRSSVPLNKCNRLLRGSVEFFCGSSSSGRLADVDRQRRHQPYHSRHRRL
#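 Purified cruzain at 1.5 nM, pre-incubated 15 min with compound at room temperature in 100 mM sodium acetate pH 5.5, 5 mM DTT, 0.00005% Triton X-100. Reaction started with 2 uM Z-FR-AMC; AMC fluorescence increase over 60 s gives rate.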
# LASV entry inh: blocks Lassa virus binding to or entry into cells. Lassa virus pseudotype entry inhibition, cell reporter; control for the full effect not named in the record. Potency, µM (series often up to 37.9 µM), for inactives: top-dose activity change, negative = inhibition, actives largely listed as inhibitors. 1.2% of 300,000 active. AID 540256; active means well fitted inhibition curve with a large enough effect; inconclusive means small, poorly fitted or top-dose-only effect, or effect the other way; inactive means flat fitted curve, though single readings scatter; tested in HEK293 cells; further: on the % scale 0 is the no-effect control and ±100 the full control effect; nearly all actives have a fitted effect of over 50% in size; luciferase read-out
# 2A StopGo: FMDV 2A StopGo reporter, luciferase signal. human cells with a luciferase reporter of 2A StopGo recoding; control for the full effect not named in the record. Potency, µM (top dose mostly 57.9 µM), without a hit: at the top dose signal change, negative = less light. 1.2% of 410,000 active; active = well fitted falling curve with a large enough effect; inconclusive = small, poorly fitted or top-dose-only effect; inactive = no such curve, though single readings can be large or run the other way; tested in HEK293T cells; further: on the % scale 0 is the no-effect control and ±100 the full control effect; nearly all actives have a fitted effect of over 45% in size; luciferase light after 4 h
# MARV entry inh: Marburg virus entry inhibition. Marburg virus pseudotyped entry inhibition, cell reporter; control for the full effect not named in the record; about a third of the inactives were read at about 46 µM. Potency, µM (doses to about 37.8 µM), inactives show at the highest dose activity change, negative = inhibition, actives largely listed as inhibitors. 1.8% of 300,000 active. AID 540276; active = well fitted inhibition curve with a large enough effect; inconclusive = small, poorly fitted or top-dose-only effect, or effect the other way; inactive = flat fitted curve, though single readings scatter; tested in HEK293 cells; about a fifth of its hits are not listed in these tables; further: on the % scale 0 is the no-effect control and ±100 the full control effect; luciferase read-out
# Cruzain Triton: cruzain (T. cruzi) inhibition with detergent. P25779. AID 1478. 0.43% of 200,000 active. purified cruzain, Z-FR-AMC fluorescence, 0.01% Triton. Potency, µM, inactives show max response, negative = inhibition, usual class: inhibitors;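 further: plate controls were neutral wells for no effect and buffer without enzyme for full effect; nearly all actives have a fitted effect of over 40% in size; top concentration of the series not given in the record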
#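 Enzyme 1.5 nM, Z-FR-AMC 2 uM, NaOAc 100 mM pH 5.5, DTT 5 mM, Triton X-100 0.01%; 15 min RT compound preincubation; kinetic ex360/em450, 60 s delta.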
# RE007 growth inh: less growth of the S. pombe RE007 Vpr strain. 0.21% of 360,000 active. Potency, µM (top dose mostly 92.2 µM), without a hit: at the highest dose activity change, negative = less growth. AID 651644. S. pombe RE007 Vpr strain, BacTiter-Glo ATP luminescence, 24 h; control for the full effect not named in the record; active = well fitted falling curve with a large enough effect; inconclusive = small, poorly fitted or top-dose-only effect; inactive = no such curve, though single readings can be large or run the other way;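 further: on the % scale 0 is the no-effect control and ±100 the full control effect; nearly all actives have a fitted effect of over 50% in size; the assay follows cell death caused by Vpr and the record does not say whether a fall means rescue or toxicity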
#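 Fission yeast RE007 carrying one integrated HIV-1 vpr copy, seeded at OD 0.01 in PMG+AL medium with 23 nL pinned compound. Grown 24 h at 30 degrees; viability read by BacTiter-Glo luminescence after 5 min.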
# Numbers without * were called inactive; ? = inconclusive; · = not tested or not shown; & = joins results of further samples; [ ] = dose if it differs, or a comment. Unless noted, the call rests on the fitted dose curve; in most records, active means well fitted curve in the direction sought with a large enough effect; inconclusive means small, poorly fitted or top-dose-only effect, or another doubt; inactive means no such curve, though single readings can be large; an effect the other way counts as inactive or inconclusive. Potency means the concentration at half of the fitted maximal effect.
SMILES,NS1 inh,SARS PLpro yeast,Cruzain inh noDet,LASV entry inh,2A StopGo,MARV entry inh,Cruzain Triton,RE007 growth inh
Cc1ccccc1NC(=O)c1c([N+](=O)[O-])c(C(C)(C)C)nn1C,-11%,-8%,-2%,?,-7%,0%,-0.7%,15%
COc1ccc(C(CC(=O)N2CCC3(CC2)OCCO3)NS(=O)(=O)c2ccc(F)cc2)cc1 (stereo not given),-3%,1%,9%,-13%,-7%,?,3.0%,22%
Cc1cnccc1CN(C)C(=O)CC1C(=O)NCCN1CC1CCCCC1 (stereo not given),9%,-1%,·,-3%[46.1 µM],51%[activator],25%[46.1 µM],·,-6%
CCC(C)NC(=O)CSc1nc2c(sc(=S)n2-c2cc(Cl)ccc2OC)c(=O)[nH]1 (stereo not given),5%,1%,·,·,-12%,·,·,9%
O=C(CSc1nnc(NC(=O)c2c(F)cccc2F)s1)NCc1ccco1,·,24%,·,7%,27%,?,·,-22%
Cc1cc[n+](CC(=O)c2cc3ccccc3oc2=O)cc1,?,-21%,-12%,-1%,34%[activator],9%,-9.2%,-17%
CC1CCN(Cc2c(C(=O)N/N=C/c3ccc(OC(C)C)cc3)nnn2-c2nonc2N)CC1,-28%,2%,·,2%,?,?,·,4%
O=C(Cc1c[nH]c2ccccc12)NCc1ccccc1F,0%,-3%,·,·,1%,·,·,-5%
COc1ccc(CNC(=O)Cn2ncc3c4ccccc4n(Cc4cccc(Cl)c4)c3c2=O)cc1,·,·,-1%,-17%[46.1 µM],24%,-8%[46.1 µM],-7.0%,·
Cc1ccc(NC(=O)NCCOCCn2c(=O)oc3ccccc32)cc1F,·,·,-3%,-1%[46.1 µM],-24%,24%[46.1 µM],-0.4%,·
Cc1ccccc1NC(=S)NC(=O)Cc1ccc(Cl)cc1,?,17%,·,?,11%,?,·,3%
Cc1nn(-c2ccccn2)c2c1C(c1ccsc1)C1=C(CCCC1=O)N2 (stereo not given),-62%,-2%,-1%,-13%,-24%,?,-7.2%,-17%
CCCn1c(=O)c2[nH]c(C3CCCC3)nc2n(CCC)c1=O,1%&-9%,0%,3%&5%&6%&2%,-10%&2%,-24%&-2%&-2%&-6%,?,-1.3%&-2.9%&2.9%&1.0%,15%
CC(=O)c1cccc(NC(=O)CN2C(=O)c3ccccc3C2=O)c1,24%,2%,·,23%[46.1 µM],-3%,-1%[46.1 µM],·,20%
N#Cc1c(-c2cccnc2)c2c([nH]c1=O)-c1ccccc1OC2,5%,0%,·,·,-10%,·,·,10%
COc1ccc(S(=O)(=O)N2CCCCC2)cc1NC(=O)Cc1cccc(C(F)(F)F)c1,·,3%,·,-13%,-17%,1%,·,2%
CCS(=O)(=O)NCC(c1ccco1)N1CCN(c2ccc(OC)cc2)CC1 (stereo not given),·,·,-9%,8%[46.1 µM],-10%,·,-1.6%,·
CC(OC(=O)c1nsc(Cl)c1Cl)C(=O)NC(C)(C)C (stereo not given),-1%,9%,-3%,21%,-16%,21%,1.4%,1%
Cc1ccc(-c2nc3scc(CCNS(=O)(=O)c4ccc(Oc5ccccc5)cc4)n3n2)cc1,·,·,?,?,-29%,·,0.9%,·
Oc1ccc(-c2nnc(Nc3ccccc3)c3ccccc23)cc1,-4%,1%,·,·,-16%,·,·,-3%
Oc1cccc(NC(=S)N=Nc2c(O)[nH]c3ccc(Br)cc23)c1,9%,-1%,·,·,-27%,5%[46.1 µM],·,-14%
CCOC(=O)c1nc2ccccc2c(=O)n1-c1cccc(C)c1,-8%,2%,2%,-3%,-20%,6%[46.1 µM],0.3%,-5%
Cc1ccccc1CSc1[nH]c(=O)ncc1C,11%,0%,·,·,0%,·,·,-2%
CC(=O)c1ccc(NC(=O)Cn2cnc(S(=O)(=O)N3CCCC3)c2)cc1,-13%,0%,·,·,-11%,·,·,6%
CN(C)C(=O)C12CCC(C)(C(=O)C1Br)C2(C)C (stereo not given),2%,0%,·,·,?,·,·,-7%

# Later entries
SMILES,NS1 inh,SARS PLpro yeast,Cruzain inh noDet,LASV entry inh,2A StopGo,MARV entry inh,Cruzain Triton,RE007 growth inh
CCc1ccc(CNC(=O)c2cc(-c3ccc(Br)s3)nc3ccccc23)cc1,·,·,-7%,15%[46.1 µM],-10%,1%[46.1 µM],-3.2%,·
CCOc1ccc(NC(=O)NC23CC4CC(CC(C4)C2)C3)cc1,-31%,-16%,17%,11µM*,23%,?,-0.4%,-1%
CCNC(=O)c1ccccc1NC(=O)c1cccc(S(=O)(=O)N2CCOCC2)c1,-16%,-2%,6%,0%,-8%,?,0.1%,-18%
O=C(c1ccc(Cl)cc1)C1CCCN(Cc2cccn2-c2ccccn2)C1 (stereo not given),-1%,0%,·,?,-7%,4µM*,·,0%
N#Cc1ccc(-c2nnnn2-c2ccc3c(c2)OCO3)cc1,9%,-4%,5%,?,9%,8%,-0.1%,5%
CC(=O)C1=C(O)C(=O)N(Cc2ccco2)C1c1ccccc1 (stereo not given),-2%,1%,-18%,4%,·,17%,3.5%,11%
CC(=O)Nc1ccc(NC(=O)CCS(=O)(=O)c2ccc3c(c2)CC(=O)N3C)cc1,·,·,19%,-1%[46.1 µM],-5%,·,0.3%,·
COc1ccc(/C=C2\Sc3ccc(C(=O)NC4CC4)cc3N(C)C2=O)cc1OC,10%,-4%,·,·,?,·,·,-13%
Cc1nnc(SCC(=O)NCCOc2ccc(Cl)cc2)n1-c1ccccc1,-59%,6%,?,-4%,-1%,-7%,-1.5%,17%
COc1cc(CCC(=O)OCC(=O)Nc2sccc2C(N)=O)cc(OC)c1OC,·,-1%,·,-30%,18µM*,-17%[46.1 µM],·,-11%
CCOc1cccc(CN2CCC(n3nccc3NC(=O)C3CC3)CC2)c1O,-3%,0%,·,8%,-16%,-16%,·,-8%
CC1=C(C(=O)OCc2ccccc2)C(c2ccsc2)C(C#N)=C(N)O1 (stereo not given),-10%,1%,1%,9%,-14%,2%,-14%,-8%
COC(=O)c1sc2ncccc2c1OCc1cccc(Cl)c1,0%,-11%,9%,-12%,15%,7%,-6.6%,9%
COc1cc(/C=C/C(=O)OCC(=O)NC(=O)NC(C)C)ccc1OCC#N,5%,18%,-12%,?,-14%,?,-12%,0%
CCOC(=O)c1[nH]c(C)c(C(=O)OCCN2C(=O)c3ccccc3C2=O)c1C,-9%,1%,22%,16%,?,?,1.8%,7%
Cn1nnc2c(N3CCN(c4ccc(F)cc4)CC3)ncnc21,·,·,?,?,-32%,·,-4.6%,·
CN/C=C1\C(=O)C(C)(C)Oc2ccc3ccc(=O)oc3c21,-7%,4%,-9%,3%,0%,0%,-1.7%,7%
CC(Oc1ccc2c(c1)c1ccnc3c4ccccc4c(=O)n2c13)C(=O)NCCN1CCOCC1 (stereo not given),12%,-10%,·,·,-25%,·,·,0%
Cc1nc(NCCc2ccccc2)c(C#N)c(C)c1[N+](=O)[O-],4%,-17%,-1%,-14%,-28%,?,-10%,2%
C/C(=N\NC(=O)Nc1ccccc1)c1ccc2ccccc2c1,19%,-11%,3%,?,-12%,-7%,-3.3%,4%
Cc1cc(C)cc(OCC(=O)N2CCN(c3ncccn3)CC2)c1,·,5%,·,?,-20%,?,·,-28%
O=C(CN1CCCCCC1)N/N=C/c1ccc2ccccc2c1,-5%,-4%,·,·,46%[activator],·,·,-5%
Cn1nccc1NS(=O)(=O)c1ccc(C(C)(C)C)cc1,-4%,0%,·,-28%[46.1 µM],-19%,?,·,1%
NC(=O)C1CCN(S(=O)(=O)c2ccccc2[N+](=O)[O-])CC1,-10%,-2%,·,·,-5%,·,·,1%
CCOc1ccc(NC(=O)C2CCCN2C(=O)OCc2ccccc2)cc1 (stereo not given),·,-1%,·,-4%,4%,4%[46.1 µM],·,2%

# (listing goes on)
SMILES,NS1 inh,SARS PLpro yeast,Cruzain inh noDet,LASV entry inh,2A StopGo,MARV entry inh,Cruzain Triton,RE007 growth inh
Cc1nc2n(n1)CC(O)CS2 (stereo not given),5%,1%,-1%,19%,38%[activator],-1%,3.1%,15%
O=C(COc1ccc(Br)cc1CO)Nc1ccccc1,-31%,-4%,-4%,16%,28%,0%,4.4%,-21%
CCOC(=O)CSc1nnc(-c2ccc(OC)cc2)o1,·,·,5%,2%[46.1 µM],-20%,4%[46.1 µM],-3.8%,·
O=C(CCCOc1ccc(Cl)cc1Cl)n1nnc2ccccc21,-17%,-8%,0%,-2%,15%,17%,-11%,-13%
Cc1ccc(C(=O)O/N=C(\N)c2ccc(Br)cc2)cc1,-121%,-5%,?,?,49%[activator],?,-0.4%,7%
COc1cc(NC(=O)c2c(C)nn(-c3ccc(F)cc3)c2-n2cccc2)cc(OC)c1,·,·,-13%,-1%[46.1 µM],-28%,·,-8.5%,·
C=CCn1c(NC(=O)c2ccc(C)cc2)nc2ccccc21,4%,1%,·,?,28%,?,·,-1%
CC(=O)OCc1cc(-c2nn(C)c(=O)c3ccccc23)ccc1C,4%,-3%,·,10%,-12%,3%[46.1 µM],·,19%
CN(C)CC(=O)Nc1ccc2cn[nH]c2c1,3%,-1%,·,·,12%,·,·,1%
Nc1ccc2c(c1)N1CCN=C1S2,2%,1%,10%,-5%,2%,5%,-7.8%,-2%
C[C@@H]1C=C(C(=O)NCc2ccccc2)O[C@H](OCc2ccc(CO)cc2)C1,-1%,-1%,·,·,-1%,·,·,6%
CC(=O)c1ccc(NC(=O)c2nn(C)c3c2COc2ccccc2-3)cc1,·,·,14%,?,21%,-5%[46.1 µM],-1.9%,·
OCCNCCOc1ccccc1-c1ccccc1,5%,0%,-6%,-12%,-3%,-3%,-1.6%,-9%
COc1ccccc1OCCOCCOc1ccc(C)cc1[N+](=O)[O-],-12%,28%,11%,-6%,-17%,11%,-6.8%,·
CCn1c(C)c(C)c2cc(C(=O)NC3CCCCCC3)ccc21,-5%,-4%,·,·,44%[activator],·,·,-15%
O=C(CNC(=O)c1ccc(Cl)cc1)N/N=C/c1cccnc1,8%,1%,·,7%[46.1 µM],-3%,-18%[46.1 µM],·,0%
CCOc1ccc(CNC(=O)CCS(=O)(=O)c2ccc3c(c2)NC(=O)CO3)cc1OC,2%,16%,·,·,-12%,·,·,-8%

# Bioassay records as filed in PubChem.
